# Screening results as filed in PubChem BioAssay.
# Sfp inh: inhibitors of Bacillus subtilis Sfp phosphopantetheinyl transferase; Q9F4F7; Biochemical Sfp PPTase activity, qHTS; Potency, µM, for the others: max response, negative = inhibition, hits mostly inhibitors; hit rate 3.5% among 310,000; active = well fitted inhibition curve with a large enough effect; inconclusive = small, poorly fitted or top-dose-only effect, or another doubt; inactive = no such curve, though single readings can be large or run the other way;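 also: the enzyme is Sfp with the accession as filed and its product quenches rhodamine fluorescence; potency is read from the fitted curve at half-maximal effect; 0% = enzyme reaction without inhibitor and -100% = no enzyme wells; top concentration of the series not given in the record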
#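 After 15 min at room temperature with compound, 15 nM Sfp received 5 uM rhodamine-CoA plus 12.5 uM BHQ-2-ybbR (50 mM Hepes pH 7.6, 10 mM MgCl2). Rate came from the fluorescence difference over 30 min, ex 525/em 598 nm.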
# Menin MLL FP FL: displaces fluorescein MLL peptide from human menin | Fluorescence polarization, fluorescein-MLL peptide displacement from menin | FP activity change, % at 61.4 µM | 290,000 tested, under 10 active | AID 1766; inconclusive = falling polarisation curve, or a change in total fluorescence; inactive = total fluorescence flat and polarisation flat or rising; no compound was filed as active; the % refers to the polarisation; negative = inhibition;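 also: % of control where 0% means no effect; inhibitors lower the polarisation; unlabelled MLL peptide was the positive control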
# gsp antag: antagonists of gsp mutant (McCune-Albright syndrome). AID 624288. gsp-mutant cells, cAMP HTRF, 30 min; control for the full effect not named in the record. hit rate 0.4% among 340,000. Potency, µM (titrated, usually from 76.9 µM), for inactives: at the highest dose activity change, negative = inhibition, usual class: inhibitors; active = falling curve of any shape with a large fitted effect; inconclusive = falling curve, mostly with a smaller effect; inactive = flat or rising curve; cell line not stated here;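 also: intracellular cAMP measured with PDE inhibitor Ro 20-1724 present during compound exposure; potency is read from the fitted curve at half-maximal effect; % is scaled to controls: 0 for no effect and ±100 for the full control effect; nearly all actives have a fitted effect of over 65% in size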
#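 Cells, 2000/well, grown 16–24 h in DMEM 10% FBS with 0.5 mg/ml G418, then compounds plus […] (300 uM addition stock), 30 min at 37C. cAMP read by HTRF (cAMP-d2 and anti-cAMP antibody-K in lysis buffer) after 30 min RT.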
# gsp ag: gsp mutant agonism; hit rate 0.13% among 340,000; Potency, µM (series often up to 76.9 µM), inactives show at the top dose activation (cAMP increase), most hits filed as activators; AID 624287; gsp mutant cells, cAMP HTRF, 30 min; control for the full effect not named in the record; active = well fitted activation curve with a large enough effect; inconclusive = small, poorly fitted or top-dose-only effect, or another doubt; inactive = no such curve, though single readings can be large or run the other way; cell line not stated here;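 also: phosphodiesterase inhibitor Ro 20-1724 added with compounds to block cAMP breakdown; potency is read from the fitted curve at half-maximal effect; nearly all actives have a fitted effect of over 60% in size; about a fifth of the inactives were tested at one dose only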
#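 Cells in DMEM/10% FBS with G418 were pretreated with compounds in DMSO plus […] (300 uM stock) for 30 min at 37C. cAMP was measured by HTRF (cAMP-d2 plus anti-cAMP antibody-K) after 30 min at room temperature.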
# CtBP-E1A inh: CtBP/E1A binding inhibition | activity change, % (test concentration not listed) | hit rate 0.49% among 340,000 | AlphaScreen GST-E1A/His-CtBP binding, 1536-well; hits give low values; control for the full effect not named in the record | AID 651724; in the data active means activity change below about -65%; inconclusive means about -30% to -65%; inactive means above about -30%; also: % is scaled to controls: 0 for no effect and ±100 for the full control effect; compound concentration not given in the record
#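 Protein mix (5X: 125 nM each GST-E1A, His-CtBP) was incubated with pinned compound 2 h at 37 deg C in dark, in 50 mM Tris pH 8.0 buffer with 300 mM NaCl. Glutathione donor and nickel acceptor beads followed; AlphaScreen signal read after 1 h.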
# ClpP mod: qHTS Assay for Activators of ClpP | purified B. subtilis ClpP, FRET peptide cleavage, 20 min | AID 651965, 2013 | Potency, µM (titrated, usually from 57.5 µM), without a hit: at the highest dose activity change, negative = active | hit rate 1.9% among 340,000 | ATP-dependent Clp protease proteolytic subunit (Bacillus subtilis (strain 168)), P80244; active = well fitted falling curve with a large enough effect; inconclusive = small, poorly fitted or top-dose-only effect; inactive = no such curve, though single readings can be large or run the other way; also: potency is read from the fitted curve at half-maximal effect; the source files actives as falling curves though it sought activators and does not explain the sign; nearly all actives have a fitted effect of over 65% in size; many hits overshoot -100%
# Target sequence (P80244 whole entry, looked up): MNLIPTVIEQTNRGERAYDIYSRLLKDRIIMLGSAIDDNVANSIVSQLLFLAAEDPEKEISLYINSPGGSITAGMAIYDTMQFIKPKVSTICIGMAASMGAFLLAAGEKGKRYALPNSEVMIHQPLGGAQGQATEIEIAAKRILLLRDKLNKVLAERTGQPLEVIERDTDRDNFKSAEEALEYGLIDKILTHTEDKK
#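 FRET quenching reversal measured ClpP activation: 10 microg/mL B. subtilis ClpP at pH 8 with the FRET-FV decapeptide, read at 430 nm after 320 nm excitation. The 20-min minus 0-min signal was scaled between DMSO/no-enzyme wells and ADEP (5.8 microM final).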
# TRPV1 potentiator: human TRPV1 potentiation. Q8NER1. TRPV1-expressing cells, Fluo-8 calcium influx, capsaicin EC20 potentiation; host cell line not named in the record; control for the full effect not named in the record. potentiation, % at 8.33 µM. hit rate 0.02% among 320,000. AID 540277; active means potentiation above 80%; inconclusive means 30% to 80%; inactive means below 30%; also: 0% is about no effect
# Target sequence (Q8NER1 whole entry, looked up): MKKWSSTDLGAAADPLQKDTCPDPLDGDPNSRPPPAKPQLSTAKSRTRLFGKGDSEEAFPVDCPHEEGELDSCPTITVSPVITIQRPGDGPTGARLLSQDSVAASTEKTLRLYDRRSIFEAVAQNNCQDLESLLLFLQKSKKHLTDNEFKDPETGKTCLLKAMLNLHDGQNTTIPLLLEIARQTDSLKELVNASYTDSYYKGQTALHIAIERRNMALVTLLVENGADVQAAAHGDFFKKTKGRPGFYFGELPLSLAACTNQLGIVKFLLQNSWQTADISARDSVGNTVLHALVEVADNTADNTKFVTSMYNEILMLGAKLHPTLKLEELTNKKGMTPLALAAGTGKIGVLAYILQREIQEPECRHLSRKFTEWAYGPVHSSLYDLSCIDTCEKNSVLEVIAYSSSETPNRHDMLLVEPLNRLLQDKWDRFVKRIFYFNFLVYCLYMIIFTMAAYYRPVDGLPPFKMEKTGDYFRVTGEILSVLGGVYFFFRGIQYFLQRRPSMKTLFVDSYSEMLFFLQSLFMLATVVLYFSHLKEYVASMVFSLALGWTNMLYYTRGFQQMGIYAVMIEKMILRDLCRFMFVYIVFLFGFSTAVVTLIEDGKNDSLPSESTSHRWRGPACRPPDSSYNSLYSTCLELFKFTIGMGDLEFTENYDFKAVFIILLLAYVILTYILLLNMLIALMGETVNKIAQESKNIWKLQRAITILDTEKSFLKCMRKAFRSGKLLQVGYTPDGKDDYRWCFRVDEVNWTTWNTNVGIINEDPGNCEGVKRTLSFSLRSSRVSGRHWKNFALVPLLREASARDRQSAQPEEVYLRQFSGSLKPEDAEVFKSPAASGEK
#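 Fluo-8 calcium influx in TRPV1-expressing cells, kinetic read (ex 480/em 520 nm). Compound added and read 3 min for agonist activity, followed by capsaicin at EC20 final and 2 min further read for enhancement.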
# Active calls of the source: *; ? = inconclusive; . = not tested or not shown; & = joins results of further samples; [ ] = remark or other dose.
SMILES,Sfp inh,Menin MLL FP FL,gsp antag,gsp ag,CtBP-E1A inh,ClpP mod,TRPV1 potentiator
CCN(C(=O)CSc1nnc(-c2ccc(Cl)cc2)n1C)C1CCS(=O)(=O)C1 (centres undefined),19%,-2.5,10%,9%[15.4 µM],-29,.,14
CC(C)CC1NC(=O)N(CC(=O)Nc2ccccc2-c2ccccc2)C1=O (centres undefined),2%,3.9,14%,-4%[15.4 µM],-11,.,22
CCCCCCN1C[C@@H](n2cc(COC(=O)c3ccccc3)nn2)[C@H](O)C[C@@H]1c1ccc(C)cc1,.,.,.,36%,4,-0.6%,.
COc1c(C)cc(C(=O)C2CCCN(Cc3c(C)n(C)n(-c4ccccc4)c3=O)C2)cc1C (centres undefined),6%,0.3,5%,-7%[15.4 µM],-1,.,-2
Cc1cc(NC(=O)Nc2ccccc2[N+](=O)[O-])no1,20%,-1.7,8%,-8%[15.4 µM],-2,.,-23
Cc1cc(C)n2nc(C(=O)OCC(=O)NC3CCS(=O)(=O)C3)nc2n1 (centres undefined),.,.,.,19%,3,2.2%,.
O=C(O)C(c1ccccc1)N1C(=O)/C(=C\c2ccc(-c3cccc(Cl)c3)o2)SC1=S (centres undefined),-25%,?,?,-42%[inhibitor],.,2.9%,10
COc1ccc(CCn2nnc(-c3ccc(NC(C)=O)c(Cl)c3)n2)cc1,?,0.2,-3%,-2%,-2,2.0%,25
O=c1ccc(=O)n(CCc2ccccn2)[nH]1,.,.,12%,10%,11,2.2%,.
Cn1c(SSc2ccc(-c3cccnc3)n2C)ccc1-c1cccnc1,.,.,9%,-2%,-21,.,.
Oc1c(Br)cc(Br)c(/C=N/n2c(-c3ccccc3)n[nH]c2=S)c1Br,?,-7.8,-17%,-28%,-10,.,25
Cc1ccc2c(Cl)c(C(=O)Nc3nn[nH]n3)sc2c1,10%,-5.5,-23%,-17%[15.4 µM],4,.,-4
Cc1ccc(N2CC(C(=O)N3CCOCC3)CC2=O)cc1C (centres undefined),3%,-0.6,-2%,3%[15.4 µM],-5,.,-12
Cc1ccc([C@@H]2C[C@H]3CN(Cc4cccc(Cl)c4)C(=O)[C@]34CCCN24)o1,-13%,-0.4,-11%,0%[15.4 µM],0,.,0
Cc1cccc(NC(=O)c2cnc3scc(C)n3c2=O)c1,13%,1.2,1%,30%,8,3.8%,-7
O=C(Nc1ccccc1C(=O)NC1CCCCC1)c1ccccc1,-11%,.,?,?,14,-7.2%,-4
COc1cc(/C=C(\C#N)C(=O)N2CCc3ccccc32)ccc1O,-16%,?,-1%,-28%,-11,-7.8%,14
O=C(Cn1cnc2ccccc2c1=O)N1CCN(c2ccc(F)cc2)CC1,-7%,-2.0,8%,-21%[15.4 µM],5,.,11
Cc1cc(NC(=O)C(C)Sc2nc(-c3cccs3)nc3ccccc23)no1 (centres undefined),.,.,-5%,-2%,-2,?,2
COc1ccccc1C1CCCN1Cc1nc(-c2ccc(C)s2)oc1C (centres undefined),8%,11,-5%,4%[15.4 µM],-4,.,-2
Cc1ccc(S(=O)(=O)N(Cc2ccccc2)c2ccccc2C(=O)N2CCCCC2)cc1,-4%,0.1,?,-2%,-4,.,27
CCOc1ccc(N2C=Nc3ccc(OCC)cc3C2)cc1,-10%,4.3,2%,3%,.,-2.8%,-14
Cc1nc(C(=O)Nc2cccc(Cl)c2Cl)nn1-c1cc(OC(C)C)c(Cl)cc1Cl,9%,3.2,-4%,-12%,21,?,.
CC(C)CCOc1ccc(-c2c(=O)n(OCc3ccc([N+](=O)[O-])cc3)c3ccccc3[n+]2[O-])cc1,2%,4.3,-2%,-24%,3,2.0%,11
O=C1OC(Nc2ccc3c(c2)OCO3)c2ccccc21 (centres undefined),56µM*,-1.1,-4%,16%,?,-3.3%,23
# Additional entries.
SMILES,Sfp inh,Menin MLL FP FL,gsp antag,gsp ag,CtBP-E1A inh,ClpP mod,TRPV1 potentiator
Cc1nc(/C(N)=N/OC(=O)c2cccc(Cl)c2)c(C(F)(F)F)o1,14%,-0.3,-2%,-15%,9,-0.3%,-15
CCN(CC(=O)NCc1cccs1)C(=O)c1ccc(S(=O)(=O)Nc2ccccc2C)cc1,.,.,-9%,6%,8,0.6%,9
Cc1ccc2[nH]c3c(=O)n(CCCN4CCOCC4)cnc3c2c1,3%,-2.1,8%,-27%,-2,14µM*,-14
COc1ccccc1C(=O)NCCn1cc(SCC(=O)NCC2CCCO2)c2ccccc21 (centres undefined),11%,-6.3,-9%,?,-4,-1.6%,0
Cc1ccc(S(=O)(=O)N2CCN(S(=O)(=O)N3CCCCC3)CC2)c(C)c1,19%,2.9,0%,31%,4,1.3%,-8
O=C(NCc1ccc2c(c1)OCO2)c1ccc2c(c1)C(=O)N(Cc1cccnc1)C2=O,8%,-2.2,-5%,-4%,-6,18µM*,-1
OC1COC(OCC2OC(OCc3ccccc3)C(O)C(O)C2O)C(O)C1O (centres undefined),14%,1.2,6%,.,1,0.8%,-11
C/C=C/C(=O)Nc1ccccc1Br,9%,-1.3,3%,6%,1,-1.4%,-5
O=C(O)c1ccc(Cn2cc(C(F)(F)F)ccc2=O)cc1,6%,-2.9,7%,-4%,.,0.4%,13
Cn1c(N)c(C(=O)CSc2nnc(NC3CCCCC3)s2)c(=O)n(C)c1=O,.,.,32%,121%[15.4 µM],-25,.,28
COc1ccc(CCNC(=O)Cn2nc(C(=O)O)c3ccccc3c2=O)cc1OC,-8%,1.5,4%,14%,.,1.5%,5
O=C(O)CCCCCNC(=O)/C=C/c1ccco1,14%,-4.5,9%,18%,-1,.,8
CCOC(=O)c1ccccc1NC(=O)COC(=O)CSCC(=O)Nc1cc(C)on1,.,.,-4%,-4%[15.4 µM],0,-0.2%,11
c1ccc2c3c([nH]c2c1)C1(CCCCC1)NCC3,-20%,-0.7,3%,.,-8,-6.6%,-29
Cc1ccc(S(=O)(=O)N2CC(=NN=C(N)N)C2)cc1,7%,-2.1,5%,-17%[15.4 µM],3,.,0
COc1ccc(C2CC(O)(c3ccccc3)Oc3cc(OC)c(OC)c(OC)c32)cc1 (centres undefined),11%&12%,-0.8&-0.5,-8%,?,.,-1.3%,12
CCN(CC)C(=O)C(=O)N/N=C/c1ccc(C(=O)OC)cc1,9%,3.3,5%,-7%[15.4 µM],-2,0.4%,4
c1ccc(CCNc2ncnc3scc(C4COc5ccccc5O4)c23)cc1 (centres undefined),?,0.0,?,0%,0,-9.3%,-8
c1ccc2c(c1)OCCOCCOc1ccccc1OCCOCCO2,7%,1.1,-16%,?,-1,-1.5%,-10
CSCCC(NS(=O)(=O)/C=C/c1ccccc1)C(=O)O (centres undefined),21%,-3.7,2%,20%,0,.,-7
Cc1ccc(S(=O)(=O)NCC(=O)Nc2cccc([N+](=O)[O-])c2)cc1,23%,4.0,4%,-8%[15.4 µM],0,0.9%,-4
CN1CCC/C1=C1/C(=O)N(c2ccccc2)N=C1NC(=O)Nc1cccc(Cl)c1,7%,0.0,-11%,13%,.,2.9%,2
O=C(CSCc1cccc(Cl)c1)NCc1ccc2c(c1)OCO2,2%,0.2,-1%,-155%[inhibitor],5,64%,-4
Cc1ccc(NC(=O)COC(=O)c2ccc(Cl)cc2)cc1S(=O)(=O)N(C)C,-5%,-3.1,-4%,21%,.,1.2%,2
O=C(OCc1nc2ccccc2s1)c1ccccc1O,-13%,-1.3,.,-16%[15.4 µM],0,.,-8
# The list goes on.
SMILES,Sfp inh,Menin MLL FP FL,gsp antag,gsp ag,CtBP-E1A inh,ClpP mod,TRPV1 potentiator
CCC(C(=O)NC(C)(C)C)N(Cc1ccco1)C(=O)CNS(=O)(=O)c1ccc(OC)cc1 (centres undefined),13%,.,14%,?,1,.,7
CCOC(=O)c1c(-c2ccc(C)o2)csc1NC(=O)COC(=O)c1ccc(NC(N)=O)cc1,?,-0.1,?,6%,-6,-0.5%,4
Cn1c(=O)c2ccccc2n2c(CCl)nnc12,22%,0.5,-25%,1%[15.4 µM],-14,.,2
Cc1cc(SCC(=O)N(CC(C)C)c2c(N)n(CC(C)C)c(=O)[nH]c2=O)nc2ccccc12,.,.,9%,42%,-8,-8.9%,2
CCC(=O)Nc1ccc(C(=O)OCc2ccccc2)cc1,0%,1.8,-8%,?,8,-0.4%,-2
CC(CCC(=O)O)C1CC[C@@]2(C)C3C(=O)CC4C(C)(C)C(O)CC[C@]4(C)C3C(=O)C[C@]12C (some centres undefined),29%,4.3,-8%,-16%,3,.,-32
COc1cccc(C(=O)/C=C/c2ccc(N3CCCCC3)c([N+](=O)[O-])c2)c1,-1%,3.1,0%,?,7,0.9%,6
Cc1cc(C(=O)OCC(=O)Nc2cccc(S(N)(=O)=O)c2)c(C)o1,.,.,-8%,5%[15.4 µM],-68*,1.2%,.
Cc1cc(NS(=O)(=O)c2ccc(NC(=O)CSc3nc4ncccc4[nH]3)cc2)nc(C)n1,13%,4.4,2%,?,-20,-9.6%,7
c1ccc(CNc2ncnc3nc[nH]c23)nc1,16%,-0.1,5%,?,-4,1.5%&0.0%,3
Cn1cc(/C=C2\SC(=O)N(c3ccc(O)cc3)C2=O)c2ccccc21,8%,?,32µM*,0%,-4,-2.8%,-1
CNc1c(NS(=O)(=O)c2ccc(F)c(Cl)c2)c(=O)oc2ccccc12,7%,?,10%,-21%[15.4 µM],0,.,3
O=C(c1cc(-c2ccccc2Cl)nc2ccccc12)N1CCC1,.,.,2%,-8%,1,-0.9%,-23
CS(=O)(=O)N1CCN(C(=O)c2cccnc2)CC1,10%,-2.1,1%,3%,-6,-1.7%,6
C=CCn1c(C)cc(C(=O)COC(=O)CCc2cc(OC)c(OC)c(OC)c2)c1C,.,.,-14%,2%,-6,-1.3%,.
CCN(C(=O)COC(=O)c1cc2c(s1)CCCC2)c1c(N)n(Cc2ccccc2)c(=O)[nH]c1=O,.,.,-7%,-26%[15.4 µM],0,.,.
